# Screening data (PubChem)
# YopH PTP inh = inhibitors of Yersinia enterocolitica YopH tyrosine phosphatase | fluorescence Ex485/Em525 | inhibition, %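 (about 10 µM by stock and volumes)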 | actives 0.16% (n = 140,000);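 active means inhibition of 50% or more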;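 further: controls were vehicle for no effect and minimum signal wells for full effect; inactives centre near -20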
# RecA splice inh = blocks M. tuberculosis RecA intein splicing; cell-free RecA intein splicing, fluorescence; actives 0.75% (n = 290,000); inhibition, %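 (about 9 µM by stock and volumes)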; P9WHJ3; AID 2221; in the data active means inhibition above about 30%; inconclusive means no clear call, values can overlap the other calls;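 further: 0% = vehicle wells and 100% = reference inhibitor control wells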
# Target sequence (P9WHJ3 whole entry, looked up, canonical isoform): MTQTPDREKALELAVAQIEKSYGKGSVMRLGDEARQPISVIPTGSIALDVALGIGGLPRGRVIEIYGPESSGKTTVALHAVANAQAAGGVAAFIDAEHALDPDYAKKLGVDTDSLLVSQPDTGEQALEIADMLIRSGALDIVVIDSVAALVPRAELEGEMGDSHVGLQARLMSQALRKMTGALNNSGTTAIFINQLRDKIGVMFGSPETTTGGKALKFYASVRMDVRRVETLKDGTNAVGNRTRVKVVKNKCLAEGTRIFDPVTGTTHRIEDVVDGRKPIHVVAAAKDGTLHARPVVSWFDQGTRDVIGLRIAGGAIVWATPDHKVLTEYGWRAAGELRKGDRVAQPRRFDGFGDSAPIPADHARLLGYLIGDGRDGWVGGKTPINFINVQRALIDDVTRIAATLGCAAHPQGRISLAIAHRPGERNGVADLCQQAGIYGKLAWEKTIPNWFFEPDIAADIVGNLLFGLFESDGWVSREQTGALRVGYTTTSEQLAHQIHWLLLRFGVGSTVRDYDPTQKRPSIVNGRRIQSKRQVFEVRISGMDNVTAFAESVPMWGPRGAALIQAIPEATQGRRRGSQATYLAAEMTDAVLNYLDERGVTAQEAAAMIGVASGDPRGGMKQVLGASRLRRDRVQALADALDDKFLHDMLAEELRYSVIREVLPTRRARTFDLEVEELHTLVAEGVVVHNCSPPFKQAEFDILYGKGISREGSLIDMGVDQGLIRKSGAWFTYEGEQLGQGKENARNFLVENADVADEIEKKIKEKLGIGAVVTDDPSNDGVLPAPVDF
# Mtb growth = M. tuberculosis H37Rv growth inhibitors, H37Rv strain (AID 1626); actives 0.95% (n = 220,000); inhibition, % at 10 µM, or IC50 in µM where a hit was titrated; M. tuberculosis H37Rv growth inhibition; higher % means a stronger effect;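 active means confirmed in a dose series; inconclusive means inhibition above 80% but not taken into the dose series; inactive means below 80% or under 30% at every dose of the series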;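 further: bacteria incubated seven days before Alamar blue readout; 0% = bacteria only wells and 100% = bacteria with antibiotic wells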
# Mtb bLac sens = beta-lactam sensitization of Mtb H37Rv; AID 434955; actives 0.27% (n = 330,000); inhibition, % at 25 µM; M. tuberculosis H37Rv growth with meropenem, percent inhibition; hits of this screen are not shown here;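 active means about 74% or more and at least 40 points above the plate without the antibiotic, then above 30% in a dose series; inconclusive means first-round hits that could not be retested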;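 further: growth measured after seven days incubation then overnight dye step; 0% = bacteria only wells and 100% = bacteria with antibiotic; twin plates without the antibiotic show which effects depend on it; some results filed as inactive read as strong as hits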
# Arbovirus anti = arbovirus infection inhibition | inhibition, % at 10 µM | actives 0.37% (n = 200,000) | AID 1251 | arbovirus infection cell-based antiviral screen;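 active means inhibition from about 30%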;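 further: bluetongue infection of BSR cells; cell survival read as ATP light after 72 h; 0% = infected wells without compound and 100% = uninfected wells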
# Arbovirus anti repeat = further read-out of Arbovirus anti, marked with its call; inhibition, %; measured here: 10K subset replicate screen; many hits read low in the repeat;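 first of two repeat runs on a subset; 0% = infected and 100% = uninfected wells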
# Starred values were filed as active, the others as inactive; i = inactive; ? = inconclusive; . = not tested or not shown.
SMILES,YopH PTP inh,RecA splice inh,Mtb growth,Mtb bLac sens,Arbovirus anti,others
Cc1ccccc1C(=O)NCC(=O)NNC(=S)NC(=O)c1ccccc1,-19.0,-1.9,7.2%,-0.6,-1.7,
O=C1CC(c2cccc(Br)c2)C2=C(CCCC2=O)N1 (centres undefined),-24.7,-11.8,.,-0.4,4.7,
COc1ccc(CNC(=O)C2CCN(S(=O)(=O)c3cccc4nonc34)CC2)cc1,.,-0.1,.,-3.8,.,
CN(C)CCNc1oc(COc2ccc(Cl)cc2)nc1C#N,-22.0,-1.9,-10.1%,-5.1,4.0,
CCOc1ccc(CN2CCN(CCCn3cccn3)CC2CCO)cc1 (centres undefined),.,-1.5,-0.9%,1.8,-6.0,
CCOc1ccc(N=Cc2c(O)n(-c3ccc(C)c(C)c3)c(=O)[nH]c2=O)cc1,.,-8.0,<0.195µM*,95.8,.,
COc1ccc(Cc2nnc(NC(=O)Nc3ccccc3F)s2)cc1OC,.,-2.8,.,4.0,.,
NNC(=O)CCN1CCN(C(c2ccccc2)c2ccccc2)CC1,.,0.7,0.9%,-2.6,-5.0,
N#Cc1nc(-c2ccc(OCc3ccccc3)cc2)oc1N1CCC(C(N)=O)CC1,3.6,-2.4,.,15.9,-9.9,
O=C(Cc1ccccc1[N+](=O)[O-])NCCSCc1c(F)cccc1Cl,-28.1,0.3,5.6%,-2.8,2.6,
CN(C)S(=O)(=O)c1cccc(NC(=O)CN(CCO)CC(=O)Nc2cccc(S(=O)(=O)N(C)C)c2)c1,.,-1.7,.,0.1,.,
O=C(c1ccc(Br)cc1)N1CCN(S(=O)(=O)c2ccccc2)CC1,-33.9,2.2,3.4%,-1.5,6.6,Arbovirus anti repeat=3.3

# 4 entries already listed, arranged by count of non-hydrogen atoms, falling:
SMILES,YopH PTP inh,RecA splice inh,Mtb growth,Mtb bLac sens,Arbovirus anti,others
N#Cc1nc(-c2ccc(OCc3ccccc3)cc2)oc1N1CCC(C(N)=O)CC1,3.6,-2.4,.,15.9,-9.9,
CCOc1ccc(CN2CCN(CCCn3cccn3)CC2CCO)cc1 (centres undefined),.,-1.5,-0.9%,1.8,-6.0,
NNC(=O)CCN1CCN(C(c2ccccc2)c2ccccc2)CC1,.,0.7,0.9%,-2.6,-5.0,
O=C1CC(c2cccc(Br)c2)C2=C(CCCC2=O)N1 (centres undefined),-24.7,-11.8,.,-0.4,4.7,

# (more compounds)
SMILES,YopH PTP inh,RecA splice inh,Mtb growth,Mtb bLac sens,Arbovirus anti,others
Cc1cccc(N2CCN(CC(=O)NCc3ccc(Cl)cc3)CC2)c1C,.,8.1,.,91.6,.,
CC(C)C[C@@]12C(=O)N(c3cccc(Br)c3)C(=O)N1[C@H](c1ccc(Cl)cc1)[C@@H]1C(=O)N(C3CCCCC3)C(=O)[C@@H]12,.,-1.3,.,-0.6,.,
COc1ccc(-c2nnc(SCc3ccccc3F)o2)cc1,-9.7,4.0,23.3%,9.6,2.2,
COc1cccc(-c2nn(-c3ccccc3)cc2/C=C(\C#N)C(=O)NCCCn2ccnc2)c1,-18.1,1.2,0.7%,93.0,-12.2,
CC(=O)Nc1ccc(C(=O)OCC(=O)Nc2ccccc2F)cc1,.,-0.4,6.4%,-7.1,-0.8,
O=C(Cc1ccccc1)Nc1ccc(NC(=O)C2CCCCC2)nc1,.,-1.5,-2.0%,-3.6,-5.6,
COc1ccc(S(=O)(=O)N2CCCC2C(=O)NCC(=O)Nc2cccc(Cl)c2C)cc1 (centres undefined),.,-4.8,.,13.3,.,
N/C(=N\OC(=O)c1ccc(F)cc1)c1nonc1N,-9.4,1.9,-0.7%,-4.7,-2.6,
Cc1ccccc1OCc1nnc(SCC(=O)N2CCc3ccccc32)n1C,-10.4,0.0,-1.3%,-6.3,-10.3,
COc1ccccc1NC(C#N)c1ccccc1OCc1ccccc1 (centres undefined),-9.8,-4.3,5.1%,3.5,-1.6,
C=CCN(C(=O)CCC(=O)Nc1cc(C)on1)C(C(=O)NC1CCCC1)c1ccc(CC)cc1 (centres undefined),.,-1.5,.,0.0,.,
O=C(CCNS(=O)(=O)c1ccc(Br)cc1)Nc1cccc(F)c1,.,1.5,.,0.3,.,
CN(C)CCCN=C(NO)c1ccc(Cl)cc1Cl,.,0.2,-6.4%,-2.8,.,
O=C(NNC(=O)c1csc(N2CCOCC2)n1)c1cccnc1,.,-2.0,.,-1.2,.,
Cc1cc(C)n(-c2cccc(Cl)c2C#N)n1,.,-7.5,-7.7%,-10.7,.,
O=C(Nc1ccccc1C(F)(F)F)N1CCN(c2ccccn2)CC1,.,5.8,7.9%,-5.1,-7.1,
COc1ccc(/C=N\NC(=O)C2C(=O)NCC2c2ccccc2)cc1O (centres undefined),-21.9,1.2,0.3%,-8.6,14.9,
c1ccc(OCc2nnnn2-c2ccccc2)cc1,-1.2,-4.3,-0.5%,-6.2,-2.5,
CCN1C(=O)/C(=C/c2ccc(OCc3ccc(C(=O)O)cc3)c(Cl)c2)NC1=S,.,8.8,.,-0.9,.,
Cc1cc2n(n1)C(c1ccccc1)CC(c1ccc(Br)cc1)=N2 (centres undefined),-5.8,.,11.0%,0.5,-1.9,
O=C(CCCN1C(=O)c2ccccc2C1=O)OC1CSCC1NC(=O)c1ccccc1 (centres undefined),-6.7,3.4,-11.9%,-10.5,-0.7,
CSc1ccccc1NC(=O)c1cc(C)on1,-31.4,3.0,1.5%,-3.8,-0.9,
Cc1ccc(C(=O)Nc2cccc(C(F)(F)F)c2)cc1Nc1cncnc1,.,1.9,.,86.4,.,
CCOc1cc(C2C(C(=O)c3ccco3)=C(O)C(=O)N2CC2CCCO2)ccc1O (centres undefined),.,-4.8,.,-8.9,.,

# Molecules from the list above that contain fluorine:
SMILES,YopH PTP inh,RecA splice inh,Mtb growth,Mtb bLac sens,Arbovirus anti,others
COc1ccc(Cc2nnc(NC(=O)Nc3ccccc3F)s2)cc1OC,.,-2.8,.,4.0,.,
O=C(Cc1ccccc1[N+](=O)[O-])NCCSCc1c(F)cccc1Cl,-28.1,0.3,5.6%,-2.8,2.6,
COc1ccc(-c2nnc(SCc3ccccc3F)o2)cc1,-9.7,4.0,23.3%,9.6,2.2,
CC(=O)Nc1ccc(C(=O)OCC(=O)Nc2ccccc2F)cc1,.,-0.4,6.4%,-7.1,-0.8,
N/C(=N\OC(=O)c1ccc(F)cc1)c1nonc1N,-9.4,1.9,-0.7%,-4.7,-2.6,
O=C(CCNS(=O)(=O)c1ccc(Br)cc1)Nc1cccc(F)c1,.,1.5,.,0.3,.,
O=C(Nc1ccccc1C(F)(F)F)N1CCN(c2ccccn2)CC1,.,5.8,7.9%,-5.1,-7.1,
Cc1ccc(C(=O)Nc2cccc(C(F)(F)F)c2)cc1Nc1cncnc1,.,1.9,.,86.4,.,

# Next section.
SMILES,YopH PTP inh,RecA splice inh,Mtb growth,Mtb bLac sens,Arbovirus anti,others
COC(=O)c1cc2c(ccc3ccccc32)oc1=O,.,i,.,98.9,.,
C(#Cc1ccccc1)CN1CCOCC1,.,-5.0,-3.6%,-3.3,11.5,
CCOC(=O)C1=C(CC)Nc2ccccc2N=C1NC(=O)c1oc2ccccc2c1C,.,17.0,-7.5%,-0.6,6.6,
COc1ccc(-c2c3c(=O)n(C)c(=O)n(C)c3cn2-c2ccccc2)cc1,-36.1,1.5,-1.5%,-9.1,-5.4,
O=C(CSc1nncs1)Nc1ccc2[nH]c(=O)[nH]c2c1,.,-0.3,.,1.4,.,
COc1ccc(CN(C(=O)c2snc(C(N)=O)c2N)C(C(=O)NC2CCCC2)c2ccc(OC)cc2)cc1 (centres undefined),.,-2.2,.,-3.7,.,
O=C(N/N=C/c1ccc(OC(=O)c2ccccc2Cl)cc1)c1ccccn1,.,0.0,.,95.3,.,
CCN(CC(=O)Nc1ccccc1C(=O)Nc1ccccc1)Cc1nc2ccccc2c(=O)[nH]1,.,0.9,13.0%,-8.0,15.9,
COc1cc(C#N)ccc1OCC(=O)Nc1cccc(S(=O)(=O)N2CCCC2)c1,.,-3.7,2.0%,-1.5,1.6,
COc1ccccc1N1CCN(CC(=O)Nc2ccc3c(c2)OCCO3)CC1,.,-2.5,-0.9%,13.1,-0.9,
CCOC(=O)c1cc2cc(F)ccc2nc1C,-34.1,.,-11.2%,-2.7,1.2,
CCCCc1cc(=O)oc2cc(C)cc(OC(C)C(=O)O)c12 (centres undefined),-29.9,-0.6,-13.9%,3.0,-7.1,
O=C1NC2(CCc3ccccc32)C(=O)N1CCOc1ccc(Cl)cc1 (centres undefined),-15.5,-3.8,-5.4%,5.0,-7.5,
CCOC(=O)c1cnc(SC2CC(=O)N(c3ccc(C)cc3)C2=O)nc1N (centres undefined),-17.7,4.1,0.0%,-20.7,-1.4,
Cc1ccccc1C(=O)N1CCC(C(=O)Nc2cccc(F)c2)CC1,-35.4,-2.2,-6.4%,-5.2,-8.8,Arbovirus anti repeat=-0.5
Cc1cc(=O)oc2cc(OC(C)C(=O)NCC3CCC(C(=O)O)CC3)ccc12 (centres undefined),.,-0.7,.,-3.3,.,
COc1cccc(/C=C2\SC(=S)N(NS(=O)(=O)c3ccccc3)C2=O)c1OC,.,2.1,.,-5.0,.,
Cc1nc2c(-c3ccccc3)cnn2c(N)c1-c1ccccc1,.,10.8,.,29.9,.,
CCC(C)[C@H](N)c1cn([C@@H](CCCCN)C(=O)N2CCNCC2)nn1 (some centres undefined),.,-0.1,-15.1%,-17.2,4.6,
O=S(=O)(CCSc1nc2ccccc2o1)Cc1ccccc1,-18.8,-1.6,-2.6%,-4.3,-2.7,
CC(=O)Nc1ccc(SCC(=O)OCC(=O)NC(=O)NC2CCCC2)cc1,.,.,-3.2%,-7.6,5.8,
Cc1onc(-c2ccccc2Cl)c1C(=O)N(Cc1ccccc1)C(C)C,.,1.4,.,5.0,.,
CCOCCCNC(=O)c1ccc(CS(=O)(=O)Cc2cccc(C)c2)o1,-8.5,1.2,7.0%,-2.2,-11.6,
COc1ccc(/C=C\C(=O)NCc2ccc3[nH]c(C)cc3c2)cc1OC,7.2,4.3,11.7%,1.3,5.3,
Cc1cccc(Nc2nnc(SCC(=O)Nc3cccnc3Cl)s2)c1,-29.5,-0.7,2.34µM*,97.7,3.6,
COc1ccc(CNC(=O)CN(C)S(=O)(=O)c2ccc(Cl)cc2)cc1,.,-0.6,3.2%,-0.2,6.0,
CC(=O)c1cccc(NC(=O)COC(=O)c2n[nH]c3ccccc23)c1,.,-0.8,-5.9%,-5.9,-3.8,
CCOc1ccc(S(=O)(=O)Nc2ccc(C(=O)NN)cc2)cc1,.,0.4,1.5%,0.9,.,
CCOC(=O)C1=C(C)NC(=S)NC1c1ccc(OCC(=O)N2CCCCCC2)cc1 (centres undefined),.,0.0,.,-2.3,.,
CSc1ncccc1C(=O)Nc1ccc(C)cn1,.,-0.6,.,0.5,.,
O=S(=O)(Cc1ncc(C(F)(F)F)cc1Cl)c1ccccc1,.,0.1,.,-6.7,.,
Cc1ccc(NC(=O)COC(=O)CNC(=O)C2CCCCC2)c(Br)c1,.,-0.9,-0.7%,-2.9,5.8,
CCOCCCNC(=O)C(NC(=O)CNC(=O)c1ccccc1)c1ccc(C)cc1 (centres undefined),-14.2,-3.4,-3.5%,?,0.4,
CCCCn1c(=O)cc(N2CCOCC2)[nH]c1=O,-14.2,3.1,6.4%,-3.2,4.8,Arbovirus anti repeat=1.3
COc1ccccc1N(CC(=O)NCCSc1ccc(Cl)cc1)S(C)(=O)=O,.,-0.3,5.6%,-4.9,5.2,
CCOC(=O)c1sc(NC(=O)c2ccc(Cl)s2)cc1C,-30.6,-2.7,-10.5%,-0.8,-4.8,Arbovirus anti repeat=1.3
CCOc1ccc(CC(=O)NCCS(=O)(=O)N2CCN(c3ccccc3)CC2)cc1,.,-0.2,.,-2.2,.,
O=C(NC1CC1)C1CC(=O)N(c2cccc(Cl)c2)C1 (centres undefined),.,1.4,.,1.4,.,
CCc1ccc(C(=O)NC(CCSC)C(=O)OC)cc1 (centres undefined),.,-0.9,2.0%,10.4,-0.6,

# These rows are one share of the data; the hit share may differ from the screen's.
